Screening results from PubChem BioAssay.
HIV Env fusion – HIV envelope-mediated fusion inhibition; HeLa-JRFL Env/CEM21 cell fusion, luciferase; inhibition, % at 12.3 µM; actives 1.1% (n = 360,000);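 active = mean replicate inhibition score of at least 50 and every replicate individually at or above 50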;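 also: 0% = plate neutral controls and 100% = maraviroc near 300 nM; one replicate is shown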
MT1-MMP act inh – blocks activation of human MT1-MMP. GFP/RFP ratio change, % at 20 µM. actives 0.061% (n = 360,000). HT1080 RFP-PRO-GFP cells, GFP/RFP ratio fluorescence, overnight; percent of plate control window, DMSO zero. P50281;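 active = GFP/RFP ratio change of at least 30% with cell ATP level not reduced by more than half and red fluorescence within 50% of control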; also: strong numbers were not always called active
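Test system: HT1080 cells expressing an RFP-PRO-GFP fluorescent reporter construct / Compound dosing: single-point 20 µM compound, 1% DMSO / Schedule: cells overnight before dosing, compound overnight, 37 °C, 5% CO2 / Evaluation: GFP/RFP fluorescence ratio / Control set: DMSO and RFP-L50D-GFP cell wells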
CSC inhib – blocks cancer stem cells | cancer stem cell-like cells viability, luminescence | inhibition, % at 7.5 µM | actives 1.1% (n = 300,000) | AID 2717;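 active = mean at 75% or more and at least half the replicates too; tested in HMLE shEcad cells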;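 also: 0% = median of negative and 100% = median of positive control wells; the first replicate is given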
eIF4H FP inh – inhibitors of RNA binding by human eIF4H | eIF4H fluorescence polarization binding assay | AID 2012 | Q15056 | inhibition, % at 35 µM | actives 0.94% (n = 290,000);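 active = 50% or more with normal probe brightness, or confirmed in later tests; about a fifth of its hits are not listed in these tables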;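 also: calls also rest on retests at 20 µM and on dose response follow-up; 0% = protein and probe with vehicle and 100% = probe without protein; strong numbers were not always called active; many hits fall short of the cut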
PABP polyA inh – PABP-poly(A) binding inhibition. P11940. PABP-poly(A) RNA binding, fluorescence polarization. inhibition, % at 35 µM. actives 1% (n = 290,000). AID 2014;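 active = 50% or more with normal probe brightness, or confirmed in later tests; about a fifth of its hits are not listed in these tables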;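 also: calls also rest on retests at 20 µM and on dose response follow-up; controls were probe without protein and protein plus probe with vehicle; some compounds called inactive have numbers as strong as hits; many hits fall short of the cut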
Target sequence (P11940 whole entry, looked up): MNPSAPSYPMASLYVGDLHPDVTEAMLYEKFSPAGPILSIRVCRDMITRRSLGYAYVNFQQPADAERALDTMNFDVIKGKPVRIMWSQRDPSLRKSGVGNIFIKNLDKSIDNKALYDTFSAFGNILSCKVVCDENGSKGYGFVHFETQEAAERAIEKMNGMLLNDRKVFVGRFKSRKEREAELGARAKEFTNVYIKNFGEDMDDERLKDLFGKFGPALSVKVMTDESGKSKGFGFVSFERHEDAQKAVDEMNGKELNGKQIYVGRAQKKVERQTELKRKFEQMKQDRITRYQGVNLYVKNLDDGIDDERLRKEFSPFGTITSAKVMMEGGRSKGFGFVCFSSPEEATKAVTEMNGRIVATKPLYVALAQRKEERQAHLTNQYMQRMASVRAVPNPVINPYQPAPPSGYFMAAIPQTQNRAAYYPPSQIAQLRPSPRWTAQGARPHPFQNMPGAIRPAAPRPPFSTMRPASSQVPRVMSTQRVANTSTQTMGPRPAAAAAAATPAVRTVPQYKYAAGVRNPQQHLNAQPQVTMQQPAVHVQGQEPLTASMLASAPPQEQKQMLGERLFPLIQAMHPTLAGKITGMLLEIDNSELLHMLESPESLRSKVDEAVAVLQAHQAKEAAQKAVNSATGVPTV
UUG fidelity – alters start codon recognition fidelity in yeast. S. cerevisiae UUG-firefly luciferase reporter, luminescence/redox ratio. activity score, % at 18.7 µM. actives 0.13% (n = 350,000). AID 602363;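 active = replicate mean at a twofold rise or more, about +100% in these data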;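 also: firefly luciferase made from a UUG start codon reports start codon fidelity; reporter light over untreated wells divided by growth signal over untreated wells; some hits fall short of that in this replicate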
Rce1 inhib – blocks yeast Ras-converting enzyme; actives 0.27% (n = 290,000); yeast membranes, quenched prenylated peptide cleavage fluorescence; Q03530; calls only; AID 2563;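 active = fall in fluorescence gain of 50% or more versus controls, with final raw signal at or below 3038400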;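 also: plate controls were neutral control wells for no effect and wells lacking membranes for full effect; tested at 10 µM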
Target sequence (Q03530 whole entry, looked up): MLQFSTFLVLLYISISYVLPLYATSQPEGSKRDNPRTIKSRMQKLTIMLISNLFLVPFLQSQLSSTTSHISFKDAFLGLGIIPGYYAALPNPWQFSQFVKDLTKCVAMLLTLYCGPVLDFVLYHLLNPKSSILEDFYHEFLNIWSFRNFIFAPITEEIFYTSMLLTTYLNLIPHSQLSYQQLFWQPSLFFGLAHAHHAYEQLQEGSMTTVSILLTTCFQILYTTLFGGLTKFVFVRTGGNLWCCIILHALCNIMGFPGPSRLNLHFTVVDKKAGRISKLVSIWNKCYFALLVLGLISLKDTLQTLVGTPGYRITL
eIF4H FP inh retest – also measured in eIF4H FP inh; calls as there; inhibition, %; compound at 20 µM; confirmation average;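 mean of two retest wells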
PABP polyA inh retest – further read-out of PABP polyA inh, marked with its call; inhibition, %; compound at 20 µM; confirmation repeats;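 mean of two retest wells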
MT1-MMP act inh RFP – further read-out of MT1-MMP act inh, marked with its call; RFP signal change, %; measured here: RFP expression control read;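 0 = vehicle wells; hits needed this value within 50% of zero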
Starred values were filed as active, the others as inactive; i = inactive; . = not tested or not shown; & = joins results of further samples. Not all compounds are listed; rates above refer to the full screens.

SMILES | HIV Env fusion | MT1-MMP act inh | MT1-MMP act inh RFP | CSC inhib | eIF4H FP inh | PABP polyA inh | UUG fidelity | Rce1 inhib | others
O=C(COc1ccc(Cl)cc1Cl)NN1C(=O)/C(=C\c2ccc(Cl)cc2)SC1=S | 3.2 | 4.2 | 9.3 | -9.8 | 6.4 | -1.0 | . | i
Cc1ccc(SCc2nc(-c3ccccc3)no2)cc1 | . | -4.3 | -3.3 | 4.1 | 2.0 | 2.5 | -16.6 | i
COc1ccc(NC(=O)CN(C)C(=O)c2cn(-c3ccccc3)nc2-c2cccs2)cc1 | 9.7 | -3.3 | -3.4 | -3.1 | . | . | -2.3 | i
COc1ccc(S(=O)(=O)CC(=O)Nc2nnc(C(F)(F)F)s2)cc1 | 8.0 | 1.9 | 5.5 | -0.4 | 0.8 | 6.2 | 4.2 | i
O=C(Nc1cccnc1)c1cc(-c2cc(Cl)ccc2O)n[nH]1 | -80.0 | 5.6 | -1.9 | 2.9 | 6.6 | -11.5 | . | i
Cc1cnc(C(=O)OCC(=O)c2ccc(F)c(F)c2)cn1 | . | 1.0 | 0.9 | -10.2 | . | . | -25.3 | i
COc1ccc2nc(SCc3ccccc3)nc(C)c2c1 | . | 2.5 | -3.0 | -0.1 | -2.2 | 7.1 | -16.8 | i
CN1CCN(c2ccc(S(=O)(=O)N3CCCCC3)cc2NC(=O)/C=C/c2ccc(Cl)c([N+](=O)[O-])c2)CC1 | -2.5 | 3.0 | -1.9 | 98.4* | . | . | 4.5 | i
C[C@@H]1CN([C@@H](C)CO)S(=O)(=O)c2ccc(Br)cc2O[C@H]1CN(C)C(=O)Cc1cccnc1 | 27.3 | 2.0 | 4.3 | . | . | . | -11.6&-3.5 | .
O=C(Nc1cccc(C(F)(F)F)c1)c1scc2c1OCCO2 | -7.7 | 1.8 | 3.1 | 4.0 | 20.5 | -2.0 | . | i
Cc1ccc(-c2nc3ccccc3o2)cc1NC(=S)NC(=O)c1cccs1 | . | -2.2 | 0.0 | -3.7 | 4.1 | -5.5 | -7.3 | i
Cc1cc(C)n(-c2nc(SCCN(C)C)c3c4c(sc3n2)COC(C)(C)C4)n1 | . | -4.9 | -9.8 | 7.5 | -2.3 | 4.3 | -24.0 | i
COCCNC(=O)c1ccc2ccccc2n1 | -24.5 | 2.3 | 1.0 | 4.0 | -1.5 | -1.1 | -7.3 | i
CCc1ccccc1N(CC(=O)NC(C)(C)C)C(=O)CCC(=O)Nc1ccccn1 | -177.6 | -3.3 | 1.0 | -11.7 | 18.0 | 3.6 | -0.6 | i
COc1ccc(Nc2cc(C(=O)NCCCN3CCOCC3)c3ccccc3n2)c(OC)c1 | 9.4 | 0.4 | 3.4 | -1.2 | 17.1 | 2.1 | -13.6 | i
CCOc1ccc(C(=S)N2CCCC2)cc1 | 7.6 | -1.7 | -2.3 | -6.1 | -3.9 | -3.1 | . | i
CC1(C)Cc2c(c(N3CCOCC3)nc3snc(NC(=O)c4ccccc4)c23)CO1 | . | 1.8 | 1.7 | -8.6 | -1.7 | 3.1 | -10.0 | i
Cc1cc(C)n(-c2ccc(C(=O)Nc3ccc(C)c(S(=O)(=O)N4CCOCC4)c3)cc2)n1 | 18.0 | -0.1 | -25.9 | 2.6 | 0.6 | 10.2 | -16.0 | i
CS(=O)(=O)Nc1cccc(-c2cc(NC=O)c3ncc(-c4ccc(F)cc4)n3c2)c1 | -0.5 | -13.7 | -0.5 | . | . | . | -6.7 | .
COc1ccccc1NC(=O)C1CCCN1S(=O)(=O)c1ccc(Cl)cc1 (configuration not stated) | 18.0 | 2.3 | 4.1 | 11.4 | 3.9 | -1.6 | 7.0 | i
CC(C)c1ccc(C(=O)NNC(=O)C2CC=CCC2C(=O)O)cc1 (configuration not stated) | -3.4 | 4.6 | 4.5 | -8.9 | 1.4 | -10.9 | . | i
O=C(Nc1ccccn1)C(F)(F)C(F)(F)C(F)(F)C(F)(F)C(=O)Nc1ccccn1 | -6.0 | -0.8 | 2.1 | 2.6 | -4.0 | 1.0 | . | i
CCC(=O)N1CCc2cc(S(=O)(=O)CCC(=O)NC(C)CC)ccc21 (configuration not stated) | -0.4 | -3.2 | 1.6 | -5.1 | -8.8 | -10.9 | . | i
CC(Oc1ccccc1)c1ccnc2nc(/N=C/N(C)C)nn12 (configuration not stated) | -28.1 | 13.1 | 7.3 | -11.8 | 3.3 | 0.8 | -8.4 | i
COc1ccc(-c2[nH]ncc2CN(C)CCc2c(C)n[nH]c2C)c(F)c1 | 0.6 | -4.6 | -0.1 | 2.9 | -0.5 | -5.7 | -14.9 | i
Cc1ccc(S(=O)(=O)NNC(=O)CC#N)cc1 | 22.0 | -1.9 | -3.5 | -3.2 | -12.2 | 3.0 | -1.5 | i
COc1ccc(S(=O)(=O)NCc2cc(=O)n(C)c(=O)n2C)cc1C | -6.9 | 1.0 | 0.9 | -3.6 | -6.0 | -1.0 | -10.8 | i
NS(=O)(=O)c1cccc(NC(=O)COC(=O)Cc2ccc(S(=O)(=O)N3CCOCC3)s2)c1 | -5.5 | -6.0 | 1.5 | . | . | . | -8.8 | .
Nc1ccc2c(c1)CC(=O)c1ccccc1S2 | . | -0.2 | 3.3 | 0.8 | 4.1 | 14.7 | -16.5 | i
O=C(NCc1cccs1)c1cccc2c(-c3cccnc3)coc12 | -11.7 | -4.3 | -6.0 | . | . | . | -14.0 | .
O=C(O)c1cc(NCc2ccc(F)cc2)ccc1N1CCOCC1 | . | 1.1 | 4.1 | -11.2 | 6.0 | 2.9 | -3.4 | i
CCc1cc2c(NC(Cc3ccccc3)C(=O)O)ncnc2s1 (configuration not stated) | -26.6 | -1.2 | 2.5 | -2.0 | -0.5 | 4.6 | -1.2 | i
c1cc2nncn2nc1N1CCCC1 | . | 2.3 | 0.4 | -3.6 | 7.1 | -0.2 | -15.6 | i
CCC(C)NC(=O)c1ccc(N2CC3CC(C2)c2cccc(=O)n2C3)c(NC(=O)c2c(F)cccc2F)c1 (configuration not stated) | 3.7 | -3.2 | -5.8 | . | . | . | -6.0 | .
CC(C)NC(=O)Nc1cccc2c1O[C@H](CN(C)S(=O)(=O)c1ccccc1)[C@@H](C)CN([C@H](C)CO)C2=O | -0.2 | -1.8 | 1.8 | -0.5 | . | . | 1.9&6.7 | .
O=C(COC(=O)CCSc1ccc(F)cc1)NCc1ccc(F)cc1 | -24.4 | -0.9 | 3.4 | -6.7 | . | . | -1.1 | .
CCCN(C(=S)Nc1ccccc1)C1CCS(=O)(=O)C1 (configuration not stated) | . | 2.0 | 3.0 | -8.4 | 3.9 | 4.0 | -20.7 | i
CCCCCCC(=O)N/N=C1\CCCc2ccccc21 | 9.3 | 1.4 | 2.0 | 18.2 | -6.5 | -4.5 | -13.6 | i
CC(C)(C)OC(=O)C[C@@H]1C/C=C\C[C@H](CC(=O)NCCO)C(=O)NC[C@H](c2ccccc2)OC1=O | 0.6 | 1.2 | 2.5 | 5.2 | . | . | 6.3 | .
CCN(CC)C(=O)CSc1nc2c(sc(=S)n2-c2ccccc2)c(=O)n1Cc1ccco1 | -220.8 | -1.3 | -4.5 | 9.5 | -3.0 | 0.4 | -14.9 | i
O=C(c1ccccc1NS(=O)(=O)c1ccc(Br)s1)N1CCCC1 | . | -5.4 | 0.6 | -5.7 | -3.5 | -4.7 | 0.9 | i
COc1ccc(N2CCN(C(=O)c3ccccc3Br)CC2)c([N+](=O)[O-])c1 | 8.4 | -3.1 | -0.5 | -2.7 | -0.7 | 5.7 | . | i
CCOc1ccccc1/C=C(\C#N)C(=O)Nc1cccc(C(=O)O)c1 | -65.9 | -16.7 | -9.9 | 0.3 | 1.2 | 9.5 | -6.3 | i
COc1ccc(NC(=O)CN(c2ccc(OC)c(Cl)c2)S(=O)(=O)c2ccccc2)cc1 | 2.2 | -0.8 | -3.1 | -1.8 | 3.6 | -3.3 | -5.8 | i
O=C(Nc1nnc(-c2ccccc2)o1)c1cc(Cl)sc1Cl | 7.7 | 8.1 | 2.9 | -14.2 | 6.7 | 5.9 | . | i
NS(=O)(=O)c1cccc(NC(=O)CN2C(=O)C(=O)N(Cc3ccccc3)C2=O)c1 | -12.6 | 5.0 | 3.5 | -3.0 | . | . | 5.6 | .
Cc1ccc(C)c(S(=O)(=O)N2CCN(c3ncccn3)CC2)c1 | 22.6 | -1.7 | -2.1 | 25.3 | -6.2 | 2.1 | . | i
COc1ccc(CC(NC(C)=O)C(=O)NC2CCN(S(=O)(=O)c3ccccc3)CC2)cc1OC (configuration not stated) | 18.8 | -1.5 | -0.8 | 12.9 | -4.4 | 4.2 | -14.0 | i
CCCc1nnc(NC(=O)COc2ccc3c(c2)OCO3)s1 | 7.5 | 1.6 | 2.7 | 39.1 | -3.8 | 6.8 | 1.6 | .
CCOc1ccc(C2C(C(=O)c3ccc(C)o3)=C(O)C(=O)N2CCCN(CC)CC)cc1 (configuration not stated) | 3.2 | -11.3 | -1.1 | -19.9 | -8.9 | 0.7 | -15.1 | i
Continued.
SMILES | HIV Env fusion | MT1-MMP act inh | MT1-MMP act inh RFP | CSC inhib | eIF4H FP inh | PABP polyA inh | UUG fidelity | Rce1 inhib | others
CCCNc1c(N)c(=O)oc2ccccc12 | . | -4.1 | 1.3 | -5.7 | -5.3 | 3.4 | -8.7 | i
O=C(N/N=C/C=C/c1ccco1)c1cccs1 | 16.1 | -6.9 | 0.8 | -17.2 | 76.1 | 0.3 | . | i | eIF4H FP inh retest=6.7;PABP polyA inh retest=-0.9
CCOC(=O)N1CCN(C(=O)c2ccc(Cn3c(=S)[nH]c4cc(C(=O)OC)ccc4c3=O)cc2)CC1 | 3.2 | 7.3 | 2.4 | -11.4 | -0.5 | 3.6 | -12.6 | i
COC(=O)c1c(NC(=O)C2CC2)sc2c1CCCC2 | 6.8 | 0.0 | 3.1 | -1.5 | -5.5 | 0.2 | 7.2 | i
N#C/C(C(=O)NCc1ccccc1)=C1/N=C(NC(=O)c2cccs2)c2ccccc21 | -17.6 | -10.1 | 4.9 | 11.0 | 2.5 | -5.2 | . | i
N#Cc1cc(Br)ccc1N=C1CCCN1c1ccccc1 | . | 1.3 | -0.6 | . | 4.7 | 4.3 | -24.0 | i
COc1cccc(CNC(=O)CN2C(=O)CCSc3ccc(S(=O)(=O)N4CCCC4)cc32)c1 | 14.7 | 3.8 | -2.0 | 2.3 | -18.8 | 2.2 | -8.2 | i
CCOC(=O)Cc1csc(NC(=O)CCCC(=O)O)n1 | -9.6 | -0.6 | 1.4 | -3.2 | -7.3 | -0.2 | 20.0 | i
Cc1ccc(C)c(NC(=O)COC(=O)CCC(=O)c2cccs2)c1 | 15.3 | -5.2 | 0.2 | -10.2 | -2.4 | 0.1 | -5.0 | i
COc1cccc(-c2ccc(SCC(=O)c3ccccc3)nn2)c1 | -6.2 | -2.5 | -6.7 | -5.0 | -0.6 | -10.3 | . | i
COc1cc2c(=O)n(Cc3ccco3)c(=O)n(CC(=O)c3ccc(Br)cc3)c2cc1OC | . | 7.5 | 3.3 | -7.0 | -10.5 | -2.5 | -8.4 | i
COc1ccc(S(=O)(=O)N2CCCCC2)cc1NC(=O)C1CSC2(C)CCC(=O)N12 (configuration not stated) | 22.1 | 0.4 | 0.2 | 7.5 | 7.5 | 3.1 | 5.8 | i

Two compounds picked at random from the list so far, as already listed:
SMILES | HIV Env fusion | MT1-MMP act inh | MT1-MMP act inh RFP | CSC inhib | eIF4H FP inh | PABP polyA inh | UUG fidelity | Rce1 inhib | others
N#C/C(C(=O)NCc1ccccc1)=C1/N=C(NC(=O)c2cccs2)c2ccccc21 | -17.6 | -10.1 | 4.9 | 11.0 | 2.5 | -5.2 | . | i
O=C(N/N=C/C=C/c1ccco1)c1cccs1 | 16.1 | -6.9 | 0.8 | -17.2 | 76.1 | 0.3 | . | i | eIF4H FP inh retest=6.7;PABP polyA inh retest=-0.9
